# Compound activity: PubChem, several laboratories
# FPRL1 ligand – human FPRL1 ligand, with FPR counter-screen; P25090; hit rate 0.3% among 24,000; FPRL1-expressing cells, fluorescent ligand binding inhibition, flow cytometry; inhibition, %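 (tested at 6.7 µM)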;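 note: 0% = buffer alone and 100% = receptor blocker peptide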
# Target sequence (P25090 whole entry, looked up): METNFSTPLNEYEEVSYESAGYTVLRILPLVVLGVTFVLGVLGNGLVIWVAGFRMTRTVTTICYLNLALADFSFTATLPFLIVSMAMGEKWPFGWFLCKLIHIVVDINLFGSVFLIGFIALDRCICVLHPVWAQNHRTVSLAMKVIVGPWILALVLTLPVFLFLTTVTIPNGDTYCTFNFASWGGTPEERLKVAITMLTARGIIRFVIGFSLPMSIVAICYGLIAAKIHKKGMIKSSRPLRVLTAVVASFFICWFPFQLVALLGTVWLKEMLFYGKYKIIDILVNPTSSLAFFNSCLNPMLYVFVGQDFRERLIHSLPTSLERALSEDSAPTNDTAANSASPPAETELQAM
# FPR binder – human FPR ligand, with FPRL1 counter-screen; inhibition, %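 (tested at 6.7 µM)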; hit rate 0.74% among 24,000; AID 440; FPR-expressing cells, fluorescent ligand binding, flow cytometry;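 note: 0% = buffer wells and 100% = receptor blocker peptide wells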
# Target sequence (P21462 whole entry, looked up): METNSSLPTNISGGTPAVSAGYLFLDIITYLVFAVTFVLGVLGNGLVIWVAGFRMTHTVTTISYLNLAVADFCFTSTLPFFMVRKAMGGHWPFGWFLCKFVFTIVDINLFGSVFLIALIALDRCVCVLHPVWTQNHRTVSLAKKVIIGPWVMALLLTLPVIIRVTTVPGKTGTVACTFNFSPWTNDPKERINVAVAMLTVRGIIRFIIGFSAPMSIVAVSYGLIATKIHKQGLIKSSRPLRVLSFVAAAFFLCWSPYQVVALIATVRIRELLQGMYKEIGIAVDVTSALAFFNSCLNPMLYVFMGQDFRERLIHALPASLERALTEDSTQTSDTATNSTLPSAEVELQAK
# VCAM-1 inhibition – suppression of endothelial VCAM-1 upregulation – cell-based, plate reader, pooled HUVEC, TNFa stimulus (AID 454); HUVEC TNFa-induced VCAM-1 surface immunofluorescence, plate reader; numbers were filed only for top-ranked candidate wells; inhibition, % at 5 µM; hit rate 0.2% among 10,000;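 active = compound among top-ranked inhibitors of TNF-induced VCAM-1 adhesion protein staining, with the hit upheld by image or statistical review; inactive = the rest, including hits rejected on review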;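 note: 0% = TNFa with vehicle and 100% = cells without TNFa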
# VCAM-1 up imaging – boosters of cytokine-driven VCAM-1 levels – imaging, high-content imaging, pooled HUVEC, TNFa stimulus (AID 457) | hit rate 0.2% among 10,000 | calls only | Pooled HUVEC, TNFa-induced VCAM-1 immunofluorescence imaging; hits of this screen are not shown here;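 active = a top-ranked rise in VCAM-1 staining upheld on image or statistical review; inactive = the rest, including candidates rejected on review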;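 note: compounds tested at 5 µM in the well; cells exposed to compound for 24 hours before fixing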
# VCAM-1 down imaging – inhibitors of TNFa-induced VCAM-1 surface display, imaging, high-content imaging, pooled HUVEC, TNFa stimulus (AID 456). HUVEC TNFa-induced VCAM-1 surface expression, immunofluorescence imaging; numbers were filed only for top-ranked candidate wells. inhibition, % at 5 µM, or IC50 in µM where a hit was titrated. hit rate 0.2% among 10,000;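 active = top tenth filtered wells with inhibition above zero that passed visual or statistical confirmation; inactive = the rest, including hits rejected on review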;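 note: 0% = stimulated vehicle wells and 100% = unstimulated cells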
# Starred values were filed as active, the others as inactive; i = inactive; x = not tested or not shown.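 Rule for the calls, unless noted: active = mean above 30%; inconclusive = self-fluorescent; inactive = the rest.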 Only part of the results is shown; the hit share may differ from the screen's.
SMILES,FPRL1 ligand,FPR binder,VCAM-1 inhibition,VCAM-1 up imaging,VCAM-1 down imaging
CC(C)(C)NC(=O)C(Cc1ccccc1)NS(=O)(=O)c1ccc2c(c1)CCC(=O)N2 (centres undefined),2,-1,x,x,x
N#CC1=C2SCN(Cc3ccco3)CN2C(=O)CC1c1c(F)cccc1Cl (centres undefined),-2,1,x,x,x
O=C(Nc1ccc2c(c1)OCO2)C1CCN(S(=O)(=O)c2cccs2)CC1,4,7,x,x,x
COc1ccc(C(C(=O)NC2CCCC2)N2CCc3ccccc32)cc1 (centres undefined),0,0,x,x,x
Cc1ccc(-n2c3c(cc(C(=O)NC4CCSC4=O)c2=O)C(=O)CC(C)(C)C3)cc1 (centres undefined),0,2,i,i,i
O=C(NCc1cccnc1)C1CCN(S(=O)(=O)c2cccnc2)CC1,1,2,x,x,x
CCn1cc(C(=O)NCc2ccco2)c2cc(OC)c(OC)cc2c1=O,-3,-4,x,x,x
O=C(NCc1nnc(SCC(=O)N2CCN(c3ccccc3)CC2)o1)c1ccco1,-8,-9,x,x,x
CCOC(=O)N1CCC(N(C(=O)Nc2ccccc2)C(C)CC)CC1 (centres undefined),-1,3,x,x,x
O=C(O)c1cc(S(=O)(=O)Nc2ccc3oc(=O)sc3c2)ccc1O,-1,-4,x,x,x
COC(=O)Cn1c(CN2CCN(c3ccccc3F)CC2)nc2c1c(=O)n(C)c(=O)n2C,0,0,i,i,i
CCOC(=O)c1nnn(-c2nonc2OC)c1-c1ccccc1,6,4,x,x,x
CC1CCC(C(=O)NC(C(=O)NCCCN2CCOCC2)C(C)C)CC1 (centres undefined),-5,-4,x,x,x
COc1ccc(OC)c(C2CC(=O)N3CN(c4cccc(Cl)c4)CSC3=C2C#N)c1 (centres undefined),-4,-1,x,x,x
CCCN1C(=O)c2cc(C(=O)NC3CCCC3)ccc2C1O (centres undefined),-7,-1,x,x,x
COC(=O)C1=C(C)Nc2ncnn2C1c1ccc(C)o1 (centres undefined),1,-4,i,i,i
O=C1c2cccnc2C(O)N1Cc1ccccc1 (centres undefined),1,-7,x,x,x
N#Cc1nc(COc2ccccc2)oc1NCCCn1ccnc1,4,16,i,i,i
CC(C)CNS(=O)(=O)c1ccccc1C(=O)N1CCCCC1,2,-2,x,x,x
COCC(=O)Nc1cc(OC)ccc1OC,-2,9,i,i,i
CN(C)CCNC(=O)c1ccc(COCC(F)(F)F)cc1,0,1,i,i,i
O=C(Nc1ccc(Cc2ccc(NC(=O)N3CCOCC3)cc2)cc1)N1CCOCC1,6,1,i,i,i
CCOC(=O)N1CCN(c2c(NCc3cccs3)c(=O)c2=O)CC1,2,2,x,x,x
C=CCNC(=O)c1cccc(Br)c1,9,-4,i,i,i
Cc1cc(S(=O)(=O)NCCN(C)C)c(C)s1,-4,-3,x,x,x

# (more compounds)
SMILES,FPRL1 ligand,FPR binder,VCAM-1 inhibition,VCAM-1 up imaging,VCAM-1 down imaging
OCCn1c(CSc2nnc(-c3ccco3)n2-c2ccccc2)nc2ccc(Cl)cc21,-5,0,i,i,i
COc1cc(Cl)c(S(=O)(=O)N2CCN(Cc3ccc4c(c3)OCO4)CC2)cc1Cl,-5,-3,x,x,x
Cc1ccnc(NS(=O)(=O)c2ccc(NS(=O)(=O)c3cccs3)cc2)n1,5,0,x,x,x
CN(C)c1nc(N)nc(CSc2nnnn2-c2cccc3ccccc23)n1,-1,-1,i,i,i
Cc1cc(NC(=O)Cc2cn3ccsc3n2)n(-c2ccccc2)n1,9,0,i,i,i
Cc1cc(C)c(C)c(S(=O)(=O)Nc2ccc(O)cc2)c1C,0,-7,i,i,i
O=C(NCCCN1CCC(Cc2ccccc2)CC1)C1CCN(S(=O)(=O)N2CCOCC2)CC1,0,0,x,x,x
COc1cc(C(=O)NCCC(=O)NCCCN2CCCCC2)cc(OC)c1OC,-1,-2,x,x,x
O=C1CCc2cc(S(=O)(=O)N3CCC(C(=O)NCCC4=CCCCC4)CC3)ccc2N1,-4,-5,x,x,x
COc1ccc(C2=NOC(C(=O)Nc3c(C)n(C)n(-c4ccccc4)c3=O)C2)cc1OC (centres undefined),12,14,x,x,x
O=C(O)CCCCCn1c(SCC(=O)N2CCCC2)nc2ccsc2c1=O,4,-13,x,x,x
COc1ccc(-c2cn3c(C)c(C(=O)Nc4cccc(C)n4)sc3n2)cc1,-9,1,x,x,x
CCC(=O)N1CCc2cc(S(=O)(=O)NCCCOC)ccc21,-2,0,x,x,x
O=C(OCn1nnc2ccccc2c1=O)C1CCN(S(=O)(=O)c2cccs2)CC1,10,-1,i,i,i
CCOc1ccc(-n2c(SCc3ccc(C(=O)OC)o3)nc3c(c2=O)SCC3)cc1,-8,-3,x,x,x
CCN(CC)c1ccc(NC(=O)c2[nH]c(C)c(C(C)=O)c2C)c(C)c1,-3,-4,i,i,i
COCC(=O)N(Cc1nc2ccccc2c(=O)[nH]1)Cc1cccs1,24,-1,i,i,i
Cc1[nH]c2ccccc2c1SCCNC(=O)c1ccc(Br)o1,3,5,x,x,x
CCOC(=O)Cc1csc(NC(=O)C2CCCCC2C(=O)O)n1 (centres undefined),-2,-1,x,x,x
O=c1c2cnn(-c3ccccc3)c2ncn1Cc1ccccn1,3,8,x,x,x
CCn1cc(C(=O)N2CCOCC2)c(=O)c2cc(S(=O)(=O)N(C)C)ccc21,4,-4,x,x,x
Cc1cccnc1NC(=O)CCCN1C(=O)c2ccccc2C1=O,0,-8,i,i,i
Cc1ccc(C)c(-n2c(CNC(=O)c3ccco3)nnc2SCC(=O)N2CCc3ccccc32)c1,0,55*,x,x,x
CCOc1ccc(NC(=O)Cn2nnc(C(=O)NCc3ccccc3OC)c2N)cc1,2,-7,x,x,x
O=C(c1ccc(COCC(F)(F)F)o1)N1CCCCCC1,-3,0,x,x,x

# Part of the list above, reformatted.
O=C(NCCCN1CCC(Cc2ccccc2)CC1)C1CCN(S(=O)(=O)N2CCOCC2)CC1
  FPRL1 ligand: 0	FPR binder: 0	VCAM-1 inhibition: x	VCAM-1 up imaging: x	VCAM-1 down imaging: x

CCOC(=O)Cc1csc(NC(=O)C2CCCCC2C(=O)O)n1 (centres undefined)
  FPRL1 ligand: -2	FPR binder: -1	VCAM-1 inhibition: x	VCAM-1 up imaging: x	VCAM-1 down imaging: x

Cc1ccnc(NS(=O)(=O)c2ccc(NS(=O)(=O)c3cccs3)cc2)n1
  FPRL1 ligand: 5	FPR binder: 0	VCAM-1 inhibition: x	VCAM-1 up imaging: x	VCAM-1 down imaging: x

Cc1cc(C)c(C)c(S(=O)(=O)Nc2ccc(O)cc2)c1C
  FPRL1 ligand: 0	FPR binder: -7	VCAM-1 inhibition: i	VCAM-1 up imaging: i	VCAM-1 down imaging: i

# (further entries)
SMILES,FPRL1 ligand,FPR binder,VCAM-1 inhibition,VCAM-1 up imaging,VCAM-1 down imaging
Cc1ccc(-c2noc(CCC(=O)NCCN3CCN(Cc4ccccc4)CC3)n2)cc1,-3,0,x,x,x
CC1CCN(CC(O)COc2ccc(F)cc2)CC1 (centres undefined),0,-7,x,x,x
CCC1CCCCN1C(=O)CSc1nnc(-c2ccc(Cl)s2)o1 (centres undefined),-10,8,x,x,x
CCn1cc(C(=O)NCc2ccco2)c(=O)c2cc(S(=O)(=O)N3CCC(C)CC3)ccc21,2,1,x,x,x
Cc1cc(=O)c2c(O)c(O)ccc2o1,5,3,x,x,x
CSC1=C(C#N)C(c2ccc(Cl)cc2)C2=C(CC(C)(C)CC2=O)N1 (centres undefined),-9,-6,i,i,i
COc1ccc(N2CCN(c3oc(COc4ccccc4)nc3C#N)CC2)cc1,-8,-1,i,i,i
COc1ccccc1C(=O)N1CCNC(=O)C1CC(=O)Nc1ccc(Cl)cc1 (centres undefined),-11,-4,i,i,i
CC(=O)N1c2ccccc2N(Cc2ccc(C)cc2C)C(=O)C1(C)C,1,4,x,x,x
CCOc1ccc(-n2c(SCC)nc3c(c2=O)SCC3)cc1,-4,-10,x,x,x
COc1ccc(CCNC(=O)CS(=O)Cc2nc(-c3cccs3)oc2C)cc1OC (centres undefined),4,18,x,x,x
CCOC(=O)Nc1ccc2c(c1)N(C(=O)CN(CC)CC)c1ccccc1C=C2,1,0,i,i,i
CCCCN(C)CCCNC(=O)CC1Oc2ccccc2NC1=O (centres undefined),9,8,i,i,i
CCOC(=O)Cc1ccc(NS(=O)(=O)c2ccc(SC)cc2)cc1,-5,-11,i,i,i
CCOc1nc(-c2ccccc2)ccc1-c1noc(-c2ccc(OC)c(OC)c2)n1,-7,-1,i,i,i
COc1ccccc1-n1cnnc1SCC(=O)c1ccc[nH]1,4,0,i,i,i
CCn1cc(C(=O)NCC2CCCO2)c(=O)c2cc(S(=O)(=O)N(C)C3CCCCC3)ccc21 (centres undefined),-2,-1,i,i,i
CCOC(=O)C1CCCn2c1nc1sc3c(c1c2=O)CCCC3 (centres undefined),2,0,i,i,i
CCOC(=O)c1ccccc1NC(=O)COC(=O)C1=COCCO1,-5,6,i,i,i
CCCCN1C(=O)C(O)(CC(=O)c2ccco2)c2cc(Br)ccc21 (centres undefined),7,-2,x,x,x
CC(NC(=O)CSc1n[nH]c(=O)n1C1CC1)C12CC3CC(CC(C3)C1)C2 (centres undefined),-4,-6,i,i,i
CCOC(=O)C1CCN(S(=O)(=O)c2nc3nc(C)cc(C)n3n2)CC1,-2,6,x,x,x
O=C(Cn1cnc2c(cnn2-c2ccc(F)cc2)c1=O)N1CCN(c2ccccc2)CC1,8,-3,i,i,i
COc1ccc(S(=O)(=O)N2CCCN(CCC(=O)Nc3cccc(C(F)(F)F)c3)CC2)cc1,-3,-1,x,x,x
CN1C(=S)SC(C)(NO)C1(C)C (centres undefined),-5,-3,i,i,i
COCCCNC(=O)c1ccc2c(c1)ncn2-c1ccccc1OC,0,-2,x,x,x
CCn1ccnc1C(O)c1cccc(OC)c1OC (centres undefined),0,2,x,x,x
CCCCNC(=O)CCCn1c(=O)c2ccccc2n(CC(=O)NCCC2=CCCCC2)c1=O,-11,6,x,x,x
CCOC(=O)CSC1=C(C#N)C(c2ccc(C)o2)CC(=O)N1 (centres undefined),-2,-4,i,i,i
CC(=O)N1CCc2cc(S(=O)(=O)NCCC(=O)NCCc3ccc(C)cc3)ccc21,11,4,x,x,x

# A different layout for 7 compounds above:
Molecule | FPRL1 ligand | FPR binder | VCAM-1 inhibition | VCAM-1 up imaging | VCAM-1 down imaging
CC(=O)N1CCc2cc(S(=O)(=O)NCCC(=O)NCCc3ccc(C)cc3)ccc21 | 11 | 4 | x | x | x
CCCCN1C(=O)C(O)(CC(=O)c2ccco2)c2cc(Br)ccc21 (centres undefined) | 7 | -2 | x | x | x
CCOC(=O)c1ccccc1NC(=O)COC(=O)C1=COCCO1 | -5 | 6 | i | i | i
CCCCN(C)CCCNC(=O)CC1Oc2ccccc2NC1=O (centres undefined) | 9 | 8 | i | i | i
COc1ccccc1-n1cnnc1SCC(=O)c1ccc[nH]1 | 4 | 0 | i | i | i
CCC1CCCCN1C(=O)CSc1nnc(-c2ccc(Cl)s2)o1 (centres undefined) | -10 | 8 | x | x | x
CCOC(=O)C1CCCn2c1nc1sc3c(c1c2=O)CCCC3 (centres undefined) | 2 | 0 | i | i | i
